Source: PubChem (National Center for Advancing Translational Sciences (NCATS))
miR-21 reporter: miR-21 reporter, rising signal; HeLa miR-21 FLuc reporter, luciferase, 48 h; Potency, µM (series often up to 38.3 µM), without a hit: top-dose reporter change, positive = more light; 340,000 tested, under 10 active; AID 2288; active = well fitted rising curve with a large enough effect; inconclusive = small, poorly fitted or top-dose-only effect; inactive = no such curve, though single readings can be large or run the other way;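 further: % of control where 0% means no effect; miR-21 action dims this reporter so a rising signal means less miR-21 action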
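Using DMEM plus 10% FBS, HeLa miR-21-FLuc cells are incubated with test compounds (final up to about 40uM) for 48 hours; firefly luciferase signal is then imaged following reagent-mediated lysis.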
Rango release inh: prevents RanGTP from dissociating the Rango-importin beta complex; Potency, µM (series often up to 46.1 µM), for the others: at the highest dose activity change, negative = inhibition; O95149+P62826; AID 540253; Biochemical FRET Rango-importin beta, RanGTP-induced dissociation; actives 0.071% (n = 340,000); active means falling FRET ratio curve, often poorly fitted, with flat reads before Ran was added; inconclusive means other falling curves, or compound fluorescence or quenching; inactive means flat or rising ratio curve;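 further: potency means the concentration at half of the fitted maximal effect; % of control where 0% means no effect; nearly all actives have a fitted effect of over 45% in size; -100% = wells without RanGTP and RCC1; the record marks most hits as doubtful in a second field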
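FRET read at 45 min, room temperature: inhibitors block the CFP/YFP signal rise when RanGTP (0.6 uM Ran, 2 mM GTP, 0.2 uM RCC1) frees Rango (0.1 uM) from importin beta (0.25 uM). Pre-read after 5 min compound exposure flags interference.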
Rango complex inh: inhibitors of Rango-importin beta complex formation; Rango CFP/YFP FRET sensor + importin beta, 45 min; Potency, µM (highest dose often 92.2 µM), for the others: at the highest dose inhibition of complex formation; Q14974; AID 540263; actives 0.031% (n = 340,000); active = rising FRET ratio curve, often small or poorly fitted; inconclusive = mostly compound fluorescence or quenching in the first reads; inactive = flat curves in all reads;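 further: potency means the concentration at half of the fitted maximal effect; 0% = DMSO wells and 100% = buffer wells lacking importin beta; nearly all actives have a fitted effect of over 15% in size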
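FRET biosensor (snurportin 1 IBB flanked by EYFP and cerulean), 50 nM, with compound 5 min, then 0.125 microM importin beta in PBS, 1 mM DTT, 0.02% Tween-20, 0.1% BSA. CFP/YFP ratio read after 45 min at room temperature; pre-read flags interference.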
GLA inh pH 4.5: blocks human alpha-galactosidase A at pH 4.5. P06280. 230,000 tested, under 10 active. activity change, negative = inhibition, % at 105 µM. AID 1467. purified enzyme, 4-MU-alpha-Gal fluorescence, pH 4.5; inconclusive = small, poorly fitted or top-dose-only inhibition, or a rising curve; inactive = flat fitted curve, though single readings scatter; no compound was filed as active;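 further: 0% = full activity with enzyme and -100% = basal without enzyme; dose as in the result columns while the protocol names 77 µM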
Target sequence (P06280 whole entry, looked up): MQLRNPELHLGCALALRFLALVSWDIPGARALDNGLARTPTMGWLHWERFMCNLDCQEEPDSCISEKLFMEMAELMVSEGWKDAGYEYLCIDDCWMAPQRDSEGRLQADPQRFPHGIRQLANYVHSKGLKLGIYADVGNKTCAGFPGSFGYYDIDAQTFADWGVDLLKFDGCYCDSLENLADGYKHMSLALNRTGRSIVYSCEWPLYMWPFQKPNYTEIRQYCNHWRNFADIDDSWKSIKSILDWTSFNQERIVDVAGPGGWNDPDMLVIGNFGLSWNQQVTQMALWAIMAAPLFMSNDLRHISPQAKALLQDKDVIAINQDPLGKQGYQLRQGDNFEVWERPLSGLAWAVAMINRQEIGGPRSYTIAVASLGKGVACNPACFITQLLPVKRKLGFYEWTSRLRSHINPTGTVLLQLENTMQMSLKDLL
* = called active by the depositor; ? = inconclusive; / = not tested or not shown; & = joins results of further samples; [ ] = dose if it differs, or a comment. Not all compounds are listed. The share of hits here may be higher or lower than overall.

SMILES | miR-21 reporter | Rango release inh | Rango complex inh | GLA inh pH 4.5
CCOC(=O)C1=C(N)Oc2ccccc2C12C(=O)N(CC(=O)OC)C(CC(=O)OC)=C2C(=O)OC (configuration not stated) | -2% | -4% | -2.5% | 0
Cc1csc(=N)n1Cc1ccccc1 | -6% | -7% | 1.2% | 1
NS(=O)(=O)c1cccc(N2CCNCC2)c1 | -1% | 4% | ? | -21
CNc1cc(Cl)c2nonc2c1[N+](=O)[O-] | ? | 12% | 0.2% | -2
CN1CCc2cc3c(cc2[C@H]1[C@@H]1OC(=O)c2c1ccc1c2OCO1)OCO3 | / | -10% | ? | /
C=CCn1c(O)c(C(C)=NCCC(c2ccccc2)c2ccccc2)c(=O)[nH]c1=O | -11% | 4% | 6.6% | -4
COc1ccc(C(c2c(O)c3ccccc3oc2=O)c2c(C)n(C)n(-c3ccccc3)c2=O)cc1 (configuration not stated) | 5%&-5% | 9% | 1.9% | 3
CCC(=O)OC(Cc1ccccc1)(c1ccccc1)C(C)CN(C)C (configuration not stated) | / | 11% | -0.6% | /
CN1C(=O)N(C)C(=O)C(CCc2ccncc2)(CCc2ccncc2)C1=O | -1% | 42% | -0.7% | 11
C[n+]1c2cc(N)ccc2cc2ccc(N)cc21 | / | ? | ? | -7
COC(=O)c1ccc(CN2CCN(Cc3ccccc3)CC2)cc1 | -7% | 0% | -3.2% | 1
Cc1cc(C(=O)N2CCC3(CC2)OCCO3)no1 | -3% | 18% | -0.1% | /
Cc1cnc(NC(=O)CN2CCCCC2)s1 | -5% | 0% | -1.4% | /
CC1(C)OC(c2ccccc2)=C/C(=C/C=C2C(=O)NC(=O)NC2=O)O1 | 3% | ? | ? | -4[21.1 µM]
Cc1ccccc1-n1c(-c2ccco2)nc2ccccc2c1=O | 3% | 25% | 6.1% | 6
Cc1c(C(=O)N2CCC3(CC2)OCCO3)oc2ccccc12 | -12% | -2% | 2.5% | -12
Cc1cc(OCC(=O)N2CCC(C(=O)NCC(C)C)CC2)c2c3c(c(=O)oc2c1)CCCC3 | 2% | 14% | -0.1% | /
CC1(C)c2[nH]c3ccccc3c2C[C@@H]2C(=O)N(Cc3ccccc3F)C(=O)N21 | / | ? | ? | /
C=CC1CN2CCC1CC2c1[nH]c2ccccc2c1CCO (configuration not stated) | -1% | 1% | -3.1% | -1
CN(C)C(=O)Oc1ccc2oc(=O)cc(-c3cc4ccccc4o3)c2c1 | -1% | 6% | -1.0% | /
O=C(CNC(=O)c1ccc(Cl)cc1)Nc1ccc(Br)cc1C(=O)c1ccccc1 | 5% | 6% | 0.9% | -3
O=C1C2CCCN2C(c2cccs2)N1c1ccccn1 (configuration not stated) | 0% | 3% | -2.0% | 5
C=CCNC(=O)c1c(N)n(Cc2ccco2)c2nc3ccccc3nc12 | -3% | ? | ? | 21
Cc1ccc(/C=C2\C(=O)NC(=O)N(CCc3ccc(F)cc3)C2=O)s1 | -13% | -9% | ? | 0
COc1ccc(CC2C(=O)N(c3ccccc3)C(=O)N(c3ccccc3)C2=O)c(OC)c1 | -14% | -12% | -7.6% | 3
COc1ccccc1OCC(=O)N1CCCC(N2CCN(c3ccc(F)cc3)CC2)C1 (configuration not stated) | 2% | -8% | -2.0% | /
Cc1ccccc1-c1nc2ccccc2c(=O)n1C | -12% | 8% | -1.0% | /
O=C(c1cc2c(s1)CCCC2)N1CCC2(CC1)OCCO2 | -42% | 11% | 0.3% | 0
CC(C)n1nnnc1CN1CCN(C)CC1 | -5% | -2% | 1.0% | -15
O=C(Cc1ccccc1)N1CCN(Cc2c[nH]c3ccccc23)CC1 | 0% | -3% | -4.0% | 0
CC(=O)N1CCN(CC(=O)Nc2ccc(C#N)c(Cl)c2)CC1 | 0% | 6% | 1.8% | -3
COc1ccc(C=O)cc1 | / | -7% | 2.5% | /
O=c1c2ccccc2nc(/C=C/c2ccc(O)cc2)n1-c1ccc(O)cc1 | 15% | ? | ? | /
CCn1c(O)c(C=NCCN2CCOCC2)c(=O)n(CC)c1=S | 17% | -18% | ? | 3
C=CCn1c(O)c(C(C)=NCc2cc(OC)cc(OC)c2)c(=O)[nH]c1=O | 29% | 18% | ? | -1
COC(=O)C1=C(c2ccc(F)cc2OCc2ccccc2)C[C@@H]2CC[C@H]1N2C(=O)NCc1ccc([N+](=O)[O-])cc1 | / | -10% | 0.9% | /
COc1ccc(CN2C(=O)NC(=O)/C(=C/c3ccc([N+](=O)[O-])s3)C2=O)cc1 | 3% | -24% | ? | -10
O=C1NC(=O)N(C2CCCCC2)C(=O)C1C1c2ccccc2C(=O)N1Cc1ccccc1 (configuration not stated) | -2% | 3% | 1.1% | -2
COc1ccc(NC(=O)Nc2ccc3c(c2)C(=O)N([C@H](C)CO)C[C@H](C)[C@@H](CN(C)S(=O)(=O)c2ccc(F)cc2)O3)cc1 | / | 1% | -2.4% | /
COc1cccc(NC(=O)N2CCC3(CC2)OCCO3)c1 | -38% | -16% | -1.8% | -3
CC(C)Oc1ccc(C2(C#N)CC[N+](C)(C)CC2)cc1 | -8% | 19% | -5.6% | 4
Cc1ccc(CN2C(=O)CN=C(c3ccccc3)c3ccccc32)cc1 | -1% | 6% | -2.0% | -4
COC(=O)C1=C(c2ccc(S(C)(=O)=O)cc2)C[C@@H]2CC[C@H]1N2C(=O)NCC1CC1 | / | -2% | 0.0% | /
Fc1ccc(CCNCc2ccccc2Cl)cc1 | -18% | -4% | 5.1% | 1
Cn1c(O)c(C=Nc2ccccc2-c2ccccc2)c(=O)n(C)c1=O | -2% | -1% | -0.2% | -14
CCCC/C(=N\O)c1c[nH]c2ccccc12 | -8% | 7% | 0.7% | -7
CCCCCn1c(=O)c(C(=O)NCCc2ccccc2)c(O)c2ccccc21 | -5% | 12% | -1.0% | /
CCOC(=O)c1c(C)n(COCCO)c2ccc(O)cc12 | -4% | 2% | ? | -9
Cc1cccc(C2=NCC(=O)N(CC(=O)NCc3ccco3)c3sc4c(c32)CCCC4)c1 | ? | 0% | -2.8% | -6
Cc1nc2ccc(Cl)cc2c(=O)n1-c1ccc([N+](=O)[O-])cc1 | 2% | 5% | -2.4% | /
O=C(C(=O)N1CC=C(c2ccccc2)CC1)c1c[nH]c2ccccc12 | -16% | -14% | ? | -4
NS(=O)(=O)c1ccc(-c2ccc(C=C3C(=O)NC(=O)NC3=O)o2)cc1 | 1% | -21% | 0.8% | /
COC(=O)C1=C(c2cccc(C#N)c2)C[C@@H]2CC[C@H]1N2C(=O)NCCc1ccccc1 | / | 12% | 1.5% | /
C[C@H]1CCC/C=C/[C@@H]2C[C@H](O)C[C@H]2[C@H](O)/C=C/C(=O)O1 | / | -6%&1% | -2.2%&-2.5% | /
COc1ccn(C)c(=O)c1C#N | -3% | ? | -5.5% | 0&-5&3
CN1CCN(C(=S)SCC(=O)Nc2ccc(Cl)cc2C(=O)c2ccccc2)CC1 | 17% | 16% | 0.6% | 2
Cc1cc(C=C2C(=O)NC(=O)NC2=O)c(C)n1-c1cccnc1 | -1% | 46% | 1.1% | 0
CCOC(=O)COc1ccc2c(c1)c(C(C)=O)c(C)n2Cc1ccccc1 | -1% | 1% | -1.5% | -5
Cc1cccc(-n2c(O)c(C=Nc3ccc(Br)cn3)c(=O)[nH]c2=O)c1 | 3% | -9% | -1.0% | 1
COC(=O)C1=C(c2ccc(OCc3ccccc3)cc2)C[C@@H]2CC[C@H]1N2C(=O)NCc1ccc(N(C)C)cc1 | / | 11% | -2.1% | /

Rewritten as a markdown table: 3 of the compounds above.
| SMILES | miR-21 reporter | Rango release inh | Rango complex inh | GLA inh pH 4.5 |
| --- | --- | --- | --- | --- |
| O=C(C(=O)N1CC=C(c2ccccc2)CC1)c1c[nH]c2ccccc12 | -16% | -14% | ? | -4 |
| COC(=O)C1=C(c2ccc(S(C)(=O)=O)cc2)C[C@@H]2CC[C@H]1N2C(=O)NCC1CC1 | / | -2% | 0.0% | / |
| Cn1c(O)c(C=Nc2ccccc2-c2ccccc2)c(=O)n(C)c1=O | -2% | -1% | -0.2% | -14 |

The listing continues.
SMILES | miR-21 reporter | Rango release inh | Rango complex inh | GLA inh pH 4.5
CNC1(c2ccc(F)cc2)CCCCC1 | / | 1% | -1.5% | /
CC(=O)c1cn(Cc2ccc(C#N)cc2)c2ccccc12 | 1% | 17% | 8.8% | 8
CCOc1ccccc1N1C(=O)NC(=O)/C(=C/c2ccc3c4c(cccc24)CC3)C1=O | -6% | -18% | -0.5% | 21
Cc1cccc(-n2c(C)nc3ccccc3c2=O)c1C | -5% | -14% | 0.4% | -1
COC(=O)C1=C(c2ccc(OC)c(OC)c2)C[C@@H]2CC[C@H]1N2C(=O)N1CCC(C)CC1 | / | 15% | -0.6% | /
COc1ccc(OC)c(CNCCc2ccc(OC)c(OC)c2)c1 | 2% | -9% | 3.2% | /
S=P(NC1CCCCC1)(N1CC1)N1CC1 | 2% | 6% | 3.7% | 3
CN(C)S(=O)(=O)c1cc(NC(=O)C[N+]23CCN(CC2)CC3)ccc1Cl | -7% | 1% | -2.1% | 3
Cc1cccc(-n2c(O)c(/C=N/N3CCOCC3)c(=O)[nH]c2=S)c1 | -6% | 1% | 2.3% | 4
Cc1cccc([N+](=O)[O-])c1 | / | -5% | -3.4% | /
C=CCn1c(O)c(C=NCCCn2ccnc2)c(=O)[nH]c1=O | 0% | -16% | 0.9% | 0
Nc1nc(SCc2ccc(Cl)cc2Cl)n[nH]1 | -76% | 13% | 4.8% | 0
CCP(=S)(CC)c1ccc(N(C)C)cc1 | 2% | -4% | 1.8% | -1
COC(=O)C1=C(c2ccc(F)cc2OCc2ccccc2)C[C@@H]2CC[C@H]1N2C(=O)NCc1ccc(C)cc1 | / | 1% | -0.2% | /
CCOP(=O)(OCC)C(NC(=O)c1cccc([N+](=O)[O-])c1)C(Cl)(Cl)Cl (configuration not stated) | 3% | -21% | -0.7% | 2
O=C(Cc1ccccc1)N1CCN(Cc2ccc(F)cc2)CC1 | 4% | 19% | -3.9% | /
CCNC(=S)N(C)CCc1cc2c(c(OC)c1C=C1C(=O)N(C)C(=O)N(C)C1=O)OCO2 | -3% | -21% | 1.6% | -4
O=C1C(=O)N(c2ccccc2)P(=O)(N(CCCl)CCCl)N1c1ccccc1 | / | 2% | -4.2% | /
O=C(Cn1c(=S)[nH]c2ccccc2c1=O)N1CCC2(CC1)OCCO2 | -6% | 0% | -2.9% | -18
C[N+](C)(C)CC1CCCC1=O (configuration not stated) | / | -4% | -3.4% | /
CNc1ccc2nc3ccccc3[n+](C)c2c1 | 30% | ? | -5.2% | /
O=C(N/N=C\C1C(=O)NC(=S)N(c2ccccc2)C1=O)c1ccc(O)cc1 (configuration not stated) | -27% | ? | ? | -10
COC(=O)C1=C(c2cc3ccccc3s2)C[C@@H]2CC[C@H]1N2C(=O)NCCNC(C)=O | / | -19% | 2.0% | /
C#C[C@]1(O)CC[C@H]2[C@@H]3CCC4=CC(=O)CC[C@]4(C)[C@H]3CC[C@@]21C | -3% | 17% | -3.0% | -12
Cc1ccc2[nH]c(C)c(CCNCc3cccnc3)c2c1 | -3% | -5% | -0.3% | /
COc1ccc(CN2CCN(C(=O)Cc3ccccc3)CC2)cc1Br | 3% | -4% | 0.0% | /
CC(=O)OC1N=C(c2ccccc2Cl)c2cc(Br)ccc2N(C)C1=O (configuration not stated) | -5% | 25% | -3.1% | 0
Cc1cc(OCC(=O)Nc2cc(C)nn2-c2ccccn2)c2c3c(c(=O)oc2c1)CCC3 | 7% | / | / | -2
CN1C(=O)C(=Cc2ccccc2Oc2ccc(Cl)c(F)c2)C(=O)N(C)C1=O | -3% | -22% | 2.0% | -1
COc1ccc2c(c1)C(NC(C)=O)CCc1cc(OC)c(OC)c(OC)c1-2 (configuration not stated) | / | 3% | -3.2% | /
CN1CCN(C(=O)COc2ccc(S(=O)(=O)Nc3ccc(F)cc3)cc2)CC1 | 0% | 1% | -1.1% | /
CN(C)C(=Nc1ccccc1)P(=S)(N(C)C)N(C)C | 0% | 1% | -1.1% | 0
Nc1ncc2[nH]cnc2n1 | / | 9%&-7% | 3.2%&-0.2% | /
CC(C)CC(NC(=O)C1CCCCC1)C(=O)N1CCC2(CC1)OCCO2 (configuration not stated) | -1% | 9% | -1.3% | -5
